Screening data deposited in PubChem by several laboratories.
Arbovirus inh – arbovirus infection inhibition; arbovirus infection cell-based antiviral screen; 200,000 compounds, 0.37% hits; inhibition, % at 10 µM;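 active means inhibition from about 30%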;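 further: bluetongue infection of BSR cells; cell survival read as ATP light after 72 h; 0% = infected wells without compound and 100% = uninfected wells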
RecA splice inh – inhibitors of M. tuberculosis RecA intein splicing; P9WHJ3; cell-free RecA intein splicing, fluorescence; inhibition, %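 (about 9 µM by stock and volumes)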; 290,000 compounds, 0.75% hits; in the data active means inhibition above about 30%; inconclusive means no clear call, values can overlap the other calls;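 further: 0% = vehicle wells and 100% = reference inhibitor control wells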
Target sequence (P9WHJ3 whole entry, looked up, canonical isoform): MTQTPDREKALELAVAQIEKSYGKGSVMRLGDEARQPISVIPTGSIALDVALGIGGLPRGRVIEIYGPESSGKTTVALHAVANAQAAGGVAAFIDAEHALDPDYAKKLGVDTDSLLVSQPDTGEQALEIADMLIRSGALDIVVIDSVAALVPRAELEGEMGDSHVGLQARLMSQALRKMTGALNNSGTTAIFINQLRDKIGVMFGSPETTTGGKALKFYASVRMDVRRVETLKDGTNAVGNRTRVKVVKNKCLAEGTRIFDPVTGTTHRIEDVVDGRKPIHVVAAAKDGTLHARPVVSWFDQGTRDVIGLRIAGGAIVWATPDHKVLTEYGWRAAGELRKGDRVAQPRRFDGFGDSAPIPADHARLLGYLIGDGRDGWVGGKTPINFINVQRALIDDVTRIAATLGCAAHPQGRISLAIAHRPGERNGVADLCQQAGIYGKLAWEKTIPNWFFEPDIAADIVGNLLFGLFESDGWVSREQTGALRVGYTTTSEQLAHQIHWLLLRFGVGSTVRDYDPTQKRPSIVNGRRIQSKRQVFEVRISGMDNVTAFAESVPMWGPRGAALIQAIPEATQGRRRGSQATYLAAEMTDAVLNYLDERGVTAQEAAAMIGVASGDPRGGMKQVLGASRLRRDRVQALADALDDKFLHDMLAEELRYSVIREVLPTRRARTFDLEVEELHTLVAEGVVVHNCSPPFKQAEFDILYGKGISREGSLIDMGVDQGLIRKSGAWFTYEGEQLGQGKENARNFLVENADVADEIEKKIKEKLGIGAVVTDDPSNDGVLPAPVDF
Mtb bLac sens – beta-lactam sensitization of Mtb H37Rv. M. tuberculosis H37Rv growth with meropenem, percent inhibition; hits of this screen are not shown here. inhibition, % at 25 µM. 330,000 compounds, 0.27% hits. AID 434955;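 active means about 74% or more and at least 40 points above the plate without the antibiotic, then above 30% in a dose series; inconclusive means first-round hits that could not be retested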;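 further: growth measured after seven days incubation then overnight dye step; 0% = bacteria only wells and 100% = bacteria with antibiotic; twin plates without the antibiotic show which effects depend on it; some results filed as inactive read as strong as hits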
Mtb growth – M. tuberculosis H37Rv growth inhibitors, H37Rv strain (AID 1626); M. tuberculosis H37Rv growth inhibition; higher % means a stronger effect; one-dose inhibition, % at 10 µM; IC50 in µM for titrated hits; 220,000 compounds, 0.95% hits;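 active means confirmed in a dose series; inconclusive means inhibition above 80% but not taken into the dose series; inactive means below 80% or under 30% at every dose of the series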;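 further: bacteria incubated seven days before Alamar blue readout; 0% = bacteria only wells and 100% = bacteria with antibiotic wells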
YopH PTP inh – YopH (Yersinia) phosphatase inhibition; fluorescence Ex485/Em525; inhibition, %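 (about 10 µM by stock and volumes)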; 140,000 compounds, 0.16% hits;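 active means inhibition of 50% or more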;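 further: controls were vehicle for no effect and minimum signal wells for full effect; inactives centre near -20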
Arbovirus inh repeat – further read-out of Arbovirus inh, marked with its call; inhibition, %; measured here: 10K subset replicate screen; many hits read low in the repeat;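 first of two repeat runs on a subset; 0% = infected and 100% = uninfected wells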
Starred values were filed as active, the others as inactive; u = inconclusive; x = not tested or not shown. Some of the compounds tested; count on the stated rates, not on these rows.

SMILES | Arbovirus inh | RecA splice inh | Mtb bLac sens | Mtb growth | YopH PTP inh | others
O=C(NC(CC(=O)N1CCN(c2ccc([N+](=O)[O-])cc2)CC1)c1ccccc1)c1ccccc1Cl (centres undefined) | -14 | -2.6 | -2 | 3% | 2
O=C(c1cccs1)N1CCN(c2nc3c(F)cc(F)cc3s2)CC1 | x | 2.1 | -2 | x | x
O=C1CC(C(=O)N2CCOCC2)C2(CCCC2)O1 (centres undefined) | 2 | 0.4 | -4 | 0% | -39
CCCn1nc2cc(C(=O)N(CC)c3ccc(OC)cc3)ccc2c1OCC | -10 | -5.2 | -1 | 4% | -2
COc1cc(O)c2c(c1)OC(C)(C)CC2=O | 5 | -2.7 | 14 | -4% | -4
N/C(=N\OC(=O)c1cccc(Br)c1)c1ccc(Br)cc1 | 1 | 1.2 | 1 | -3% | -34
Cc1c(S(=O)(=O)N2CCOCC2)c(=O)n(C)c(=O)n1C | 4 | -0.6 | 1 | -4% | -1
COc1ccc(-n2nnnc2SCC(=O)Nc2cccc(C)n2)cc1OC | -5 | -0.3 | -4 | -7% | -40
CN(C)CCCNC(=S)N(CCN(C)C)Cc1cc2cc3c(cc2[nH]c1=O)OCCO3 | x | 0.5 | 2 | x | x
Oc1ccc(C2=NN(c3ccccc3)C(c3ccc(F)cc3)C2)cc1 (centres undefined) | x | 19 | 12 | x | x
CCN(CC)C(=S)NC(=O)c1ccc(OC)c(Br)c1 | 2 | 1.1 | 87 | u | -9
COc1ccccc1Nc1c2c(nc3ccc(N)cc13)CCCC2 | x | 23 | -1 | -2% | x
Cc1cc(N/N=C/c2ccc(N(C)C)cc2)c2ccccc2n1 | x | -0.2 | 2 | x | x
C/C(=N/OC(=O)c1ccc(F)cc1)c1ccc(C)cc1 | -3 | 0.9 | 88 | 8% | -17
COc1cc(NC(=S)NCCC(c2ccccc2)c2ccccc2)cc(OC)c1 | -23 | 8.2 | -5 | 3% | -24
CCOc1ccc(-c2cc(C(=O)N3CCCC3)c3ccccc3n2)cc1 | x | 0.3 | u | x | x
CCOC(=O)c1ccc(NCCc2ccc(OC)c(OC)c2)c(N)c1 | x | 0.4 | 7 | x | x
Cc1cc(N2CCN(C(=O)Nc3ccc(F)cc3F)CC2)c2ccccc2n1 | x | 0.1 | -12 | x | x
COc1ccc(OCCCn2cccc2/C=C2/C(=N)N3OC(C)=CC3=NC2=O)cc1 | -4 | 3.5 | 6 | -2% | x
O=C(C1CCN(CCCc2ccccc2)CC1)N1CCCCC1 | 6 | 0.3 | 9 | -11% | -14
COc1ncnc2c1oc1ccccc12 | -4 | x | 6 | 1% | x
COCCN1C(=O)c2ccc(C(=O)NCc3cccnc3)cc2C1=O | 11 | -0.1 | -3 | -12% | -89
COC(=O)c1ccn(-c2nc(-c3ccco3)cc(C(F)(F)F)n2)n1 | 0 | 1.1 | -5 | -6% | -13
O=C(O)c1cc(-c2ccccc2)n[nH]1 | 3 | -1.4 | 8 | 4% | -24
COc1nccc(NCc2ccccc2)c1C#N | x | 1.1 | 2 | x | x
CCN(CC)CCN1Cc2ccccc2C1=N | 0 | 2.0 | -9 | 4% | -19
O=c1[nH]c2ccc(NC(=S)NC3CCCCC3)cc2[nH]1 | 2 | 0.0 | -7 | -5% | x
Cc1nc2ccccc2c2oc(C(=O)N3CCN(C(=O)c4ccco4)CC3)cc12 | 2 | 1.7 | 1 | 0% | 1 | Arbovirus inh repeat=1
CCN(CC)c1ccc(C=C2C(=O)OC3(CCCCC3)OC2=O)cc1 | 9 | -4.7 | 0 | -2% | x
O=C(CS(=O)(=O)c1ccc(Br)cc1)N1CCOCC1 | x | 0.3 | -5 | x | x
COc1ccc(C(=O)NCC(=O)OCC(=O)NC(=O)NC2CCCCC2)cc1OC | 0 | -1.7 | 2 | -4% | -9
CC1=CC(C)(C)[N+](C)(C)c2ccccc21 | -1 | 1.5 | 0 | -5% | x
COC(=O)c1ccc(CN2CCN(CCC(C)C)C(CCO)C2)cc1 (centres undefined) | -12 | x | -5 | -1% | x
CC(C)Cn1c(=O)c2c(c3ccccc31)OC(C)C(=O)N2 (centres undefined) | 3 | -2.0 | x | 9% | 42
CCn1c2ccccc2c2cc(NC(=O)c3ccc(C)c([N+](=O)[O-])c3)ccc21 | -14 | -1.7 | 7 | 7% | -44
COc1cnc(-c2ccccn2)nc1Oc1ccc(Cl)c2ccccc12 | -24 | 3.8 | 91 | x | -37
CC(C)OC(=O)c1c(NC(=O)CCn2nnc3ccccc32)sc2c1CCCC2 | -4 | 1.6 | -11 | -2% | -15
Cc1ccc(-c2csc3nc[nH]c(=O)c23)c(C)c1 | x | 0.2 | -2 | x | x
Nc1c(C(=O)N/N=C/c2cccnc2)oc2nc(-c3ccco3)cc(-c3ccco3)c12 | x | -59 | 1 | -9% | x
CNc1ccc(S(=O)(=O)NC)cc1[N+](=O)[O-] | 8 | 1.9 | -6 | 0% | x
O=C(/C=C/c1c(Cl)cccc1Cl)n1cccn1 | -4 | -3.4 | -2 | -6% | -3
CC1CCN(c2cc(N3CCC(C)CC3)c([N+](=O)[O-])cc2/C=C(\C#N)c2nn(-c3ccccc3)c(N)c2C#N)CC1 | -5 | -1.6 | 25 | x | -21
COc1ccc(NC(=S)N2CCN(S(=O)(=O)c3ccc(OC)cc3)CC2)cc1 | x | 2.6 | -5 | x | x
COc1ccc(/C=N/OCC(=O)Nn2c(C)nc3ccccc3c2=O)cc1 | 2 | 0.1 | 6 | 1% | -15
CC(=O)NC1(C(F)(F)F)NC(=O)N(CC(C)C)C1=O (centres undefined) | 0 | 5.1 | -11 | -5% | -13
O=c1[nH]c(-[n+]2ccc3ccccc3c2)c(/C=N/N=C(\[O-])c2ccccc2)s1 | x | 1.6 | 11 | x | x
O=CN(Cc1ccco1)C1(C(=O)NC2CCCCC2)CCCCC1 | -1 | x | -10 | -24% | -35
Cn1c(SCC(=O)N/N=C/C=C\c2ccccc2[N+](=O)[O-])nc2ccccc21 | -4 | -0.2 | -3 | -1% | -3
CC(C)CCNC(=O)c1onc(CSc2ccc(F)cc2)c1C(=O)NCCC(C)C | x | 1.7 | -5 | x | x
Cc1cc(CNCc2cn(C)nc2-c2ccc(Oc3ccccc3)cc2)on1 | -17 | 4.5 | -10 | 3% | x
CC(C)[C@H](NC(=O)OCc1ccccc1)C(=O)OCC(=O)NC1CCCCC1 | 2 | 0.4 | 8 | 9% | -30
COc1cc(/C=N/n2c(-c3n[nH]c4c3CCC4)n[nH]c2=S)ccc1O | x | -3.0 | -5 | -4% | x
CN(C)C(=O)c1ccc2c3c(cccc13)CC2 | 1 | 1.7 | 0 | 4% | x
CC1=NOC(=O)/C1=C/c1ccc(O)cc1 | -2 | x | -1 | -4% | x
Cc1cccc(NC(=O)CS(=O)(=O)c2cn(C)c3ccccc23)c1 | -1 | 0.9 | 1 | 11% | 0 | Arbovirus inh repeat=2
CS(=O)(=O)N(CC(=O)N1CCN(Cc2ccccc2)CC1)C1CCCCC1 | 1 | 0.8 | -5 | 3% | 18
CCOc1ccc(Oc2ccccc2NC(=O)CCNC(C)=O)cc1 | 5 | 1.1 | 2 | -4% | x
Cc1cc(OC(C)C)nc(NCc2ccccc2)n1 | -23 | 4.9 | 4 | 0% | 2
COC(=O)c1ccccc1NC(=S)NC(=O)c1ccc2c(c1)OCO2 | x | 7.7 | 6 | x | x
CSc1cccc(CN2CCN(CCC(C)C)C(CCO)C2)c1 (centres undefined) | -7 | -9.9 | -5 | 9% | x

Continuation.
SMILES | Arbovirus inh | RecA splice inh | Mtb bLac sens | Mtb growth | YopH PTP inh | others
COCCNC(=S)Nc1cc(S(=O)(=O)N2CCOCC2)ccc1N1CCCCC1 | 2 | -1.4 | 15 | 3% | x
CC(C)C(=O)N(Cc1ccc(F)cc1)Cc1nc2ccccc2c(=O)[nH]1 | 2 | 0.3 | 1 | 3% | x
Cc1ccnc(NC(=O)Cc2c(F)cccc2Cl)c1 | x | -3.7 | 4 | x | x
Cc1cc(C)n(C(C)CC(=O)Nc2ccc(-c3ccno3)cc2)n1 (centres undefined) | x | -0.3 | 65 | x | x
CC(NC(=O)Nc1ccc(F)cc1F)c1ccncc1 (centres undefined) | 2 | -3.1 | -15 | -2% | -2
C=CCN(C(=O)c1csnn1)C(C(=O)NC1CCCC1)c1c(F)cccc1Cl (centres undefined) | x | -0.5 | 3 | x | x
Fc1ccc(N2CCN(c3ncnc4nc[nH]c34)CC2)cc1 | -25 | 0.8 | 2 | 8% | -12
CC1CN(S(=O)(=O)c2ccc(C(=O)NN3CCN(C)CC3)cc2)CC(C)O1 (centres undefined) | -1 | -0.5 | -6 | 1% | -33
CC/C(C)=N/Nc1nc2sc3c(c2c(=O)[nH]1)CC(C)(C)OC3 | 9 | -4.2 | -4 | 5% | -37
Fc1ccccc1-c1n[nH]c(=S)n1CC1CCCO1 (centres undefined) | 1 | 3.2 | 1 | 1% | x
CCc1ccc(C2C(C#N)=C(N)SC(N)=C2C#N)s1 | -2 | -1.3 | 4 | 3% | -27
CC(C)c1ccc(NC(=O)CN2C(=O)NC3(CCCC3)C2=O)cc1 | x | -2.4 | 4 | x | x
COC(=O)c1cc(OC)cc(O)c1C(=O)c1c(O)cc(C)cc1O | x | x | -4 | 19% | x
COc1ccc(/C(C)=N\O)cc1OC | x | x | 1 | -14% | x
Cc1cc(C)c2[nH]c(=O)c(CN(Cc3ccco3)C(=O)c3cccs3)cc2c1 | -2 | x | x | -1% | -1
Cn1c(C(=O)NCCCN2CCN(c3cccc(Cl)c3)CC2)cc2c(=O)n(C)c3ccccc3c21 | -2 | 0.6 | -1 | 70% | -24 | Arbovirus inh repeat=-5
COC(=O)CN(c1ccccc1F)S(=O)(=O)c1ccc(C)cc1 | -3 | 0.6 | -10 | -8% | x
COC(=O)[C@@H]1CC[C@H](C)[C@@H](c2ccc(C)cc2)N1C(=O)c1ccc(/C=N/OC[C@@H](O)[C@H]2O[C@@H]3OC(C)(C)O[C@@H]3[C@H]2O)cc1 | 14 | 2.7 | x | x | -20
NS(=O)(=O)c1ccc(N=Nc2c(O)[nH]c(=S)[nH]c2=O)cc1 | x | 34* | -7 | -3% | x
COc1ccc(NC(=O)CN2CCc3ccccc3C2)cc1S(=O)(=O)N1CCOCC1 | 12 | 0.4 | 5 | 3% | -28
COc1ccccc1NC(=O)C1=C(C)Nc2ncnn2C1c1cccs1 (centres undefined) | 14 | -3.2 | 4 | 6% | -49
COc1ccc(C(=O)NCCCc2nc3ccccc3n2Cc2ccccc2C)cc1OC | -3 | 5.8 | -3 | 8% | -38
O=C(COC(=O)Cc1ccc(Cl)cc1Cl)Nc1ccc(OC(F)F)cc1 | 0 | -1.3 | 6 | 27% | -13
S=C(NCCCn1ccnc1)Nc1ccc(Cl)cc1Cl | -2 | -0.7 | -6 | 5% | x
C[C@@H](NC(=O)C1(c2ccccc2)CCN(C(=O)OC(C)(C)C)CC1)C(=O)N[C@@H](Cc1ccccc1)C(=O)O | x | 1.7 | -6 | x | x
Cc1cccc(N2CCN(S(=O)(=O)c3c(C)[nH]c(C)c3C(=O)N3CCCC3)CC2)c1C | x | 0.0 | 6 | x | x
Cc1ccc(NC2=NC(c3ccc(O)cc3)n3c(nc(C)cc3=O)N2)cc1 (centres undefined) | -1 | 3.3 | -2 | -6% | -22
CSc1ccc(CNc2cccc3ccccc23)cc1 | 2 | 15 | 31 | 5% | -6
C=CCN(CC=C)C(=O)Nc1ccc(OCC)cc1 | 4 | -1.9 | -8 | u | x
CCCn1cc(CN2CCC(N3CCC(C(=O)N4CCOCC4)CC3)CC2)c(C)n1 | x | -3.4 | -6 | -3% | x
CC(=O)Nc1sc2c(c1-c1nc3ccccc3s1)CCN(C(C)C)C2 | -22 | x | 97 | x | x
Cc1nn(S(=O)(=O)c2cccs2)c(C)c1Sc1ccc([N+](=O)[O-])cc1 | 1 | 4.7 | -5 | -3% | -36

Grouped by structure, the compounds so far containing a COOH group.
SMILES | Arbovirus inh | RecA splice inh | Mtb bLac sens | Mtb growth | YopH PTP inh | others
O=C(O)c1cc(-c2ccccc2)n[nH]1 | 3 | -1.4 | 8 | 4% | -24
C[C@@H](NC(=O)C1(c2ccccc2)CCN(C(=O)OC(C)(C)C)CC1)C(=O)N[C@@H](Cc1ccccc1)C(=O)O | x | 1.7 | -6 | x | x

3 entries already listed, ordered by length of the SMILES, falling.
SMILES | Arbovirus inh | RecA splice inh | Mtb bLac sens | Mtb growth | YopH PTP inh | others
COc1ccc(NC(=O)CN2CCc3ccccc3C2)cc1S(=O)(=O)N1CCOCC1 | 12 | 0.4 | 5 | 3% | -28
NS(=O)(=O)c1ccc(N=Nc2c(O)[nH]c(=S)[nH]c2=O)cc1 | x | 34* | -7 | -3% | x
COc1ccccc1NC(=O)C1=C(C)Nc2ncnn2C1c1cccs1 (centres undefined) | 14 | -3.2 | 4 | 6% | -49
